Compound activity: PubChem, several laboratories
RanGTP-Impb inh = inhibitors of RanGTP-importin-beta interaction, primary screen, biochemical, FRET, CFP-Ran, YFP-importin-beta, homogeneous; Ran GTPase (GTP-bound) - importin-beta complex; cell-free CFP-Ran/YFP-importin-beta FRET ratio; inhibition, % (test concentration not listed); actives 1.1% (n = 300,000);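 active = most replicates above 15%; inconclusive = exactly half above 15%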;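 also: 0% = DMSO wells and 100% = Ran loaded with GDP instead of GTP; wells of about 40 µL received 100 nL stock; the first replicate is given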
UCH37 inh = inhibitors of human UCH37 deubiquitinase, primary screen, biochemical, Ub-AMC cleavage, fluorescence | purified proteasome/UCH37 | actives 0.33% (n = 330,000) | Ubiquitin carboxyl-terminal hydrolase isozyme L5 (Homo sapiens), Q9Y5K5 | inhibition, % (concentration not given with the values);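 active = mean of two replicates above 20%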;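 also: 0% = compound-free wells with enzyme and 100% = wells lacking proteasome; stock transfer was 100 nL into about 20 µL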
Target sequence (Q9Y5K5 whole entry, looked up): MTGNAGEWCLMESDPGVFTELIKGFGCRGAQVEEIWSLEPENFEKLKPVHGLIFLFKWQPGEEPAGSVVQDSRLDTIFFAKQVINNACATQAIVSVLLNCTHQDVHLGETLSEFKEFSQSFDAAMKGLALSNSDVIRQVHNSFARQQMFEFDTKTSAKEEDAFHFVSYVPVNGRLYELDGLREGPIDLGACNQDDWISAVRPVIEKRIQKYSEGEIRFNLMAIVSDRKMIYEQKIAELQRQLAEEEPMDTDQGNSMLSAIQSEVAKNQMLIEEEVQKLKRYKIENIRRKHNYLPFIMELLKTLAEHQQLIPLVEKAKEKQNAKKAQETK
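Assay system: Proteasome-bound UCH37. Buffer or medium: pH 7.4 Tris-HCl (50 mM) with ovalbumin, ATP-MgCl2, DTT. Incubation: 30 min preincubation with enzyme, 25 min cleavage at room temperature. Measured by: fluorescence, ex 355 nm, em 460 nm. Read-out basis: percent inhibition. Control set: wells without proteasome as full block, compound-free enzyme plus substrate as uninhibited.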
Ecoli growth = E. coli growth inhibition, primary screen, OD600; actives 0.21% (n = 330,000); OD600 absorbance (no concentration beside the values); AID 1053175, 2014; Escherichia coli growth, 23 h; active compounds read low;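 active = OD600 absorbance below the run mean of sample wells minus 3.6 SD, in any replicate, cut at about 0.56 in these data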;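 also: stock transfer was 300 nL into about 60 µL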
HNF4A DNA FP = change in binding of human HNF4A to DNA, primary screen, biochemical, fluorescence polarization, FITC-DNA. actives 0.3% (n = 360,000). 1 h. Hepatocyte nuclear factor 4-alpha (Homo sapiens), P41235. AID 1224865, 2016. activity change, % at 10 µM; in the data active = activity change above about 30%, passing the limit was not always enough;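 also: controls were the assay level and a saturating level of protein; the project sought stronger binding though the title names inhibitors; some compounds called inactive have numbers as strong as hits; positive values seem to mean higher polarization but the record does not say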
FGF22 binding = binders of human FGF22 protein, primary screen, FGF22 synaptogenesis inhibitor project, biophysical, thermal shift, single point; calls only at 9.99 µM; actives 1.5% (n = 340,000); Fibroblast growth factor 22 (Homo sapiens), Q9HCT0; AID 651658, 2012; recombinant FGF22 thermal shift, SYPRO orange fluorescence; percent of sucrose octasulfate shift, DMSO zero;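 active = melting point raised past a set limit in the mean and every replicate; inconclusive = no clear call; three in four hits are not shown here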
Target sequence (Q9HCT0 whole entry, looked up): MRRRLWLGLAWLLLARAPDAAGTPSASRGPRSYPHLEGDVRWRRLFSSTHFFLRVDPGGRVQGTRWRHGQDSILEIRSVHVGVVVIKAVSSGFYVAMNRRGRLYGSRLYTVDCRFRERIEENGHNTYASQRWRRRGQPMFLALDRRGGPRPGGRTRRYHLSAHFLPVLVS
Vif TR-FRET = inhibitors of Vif binding to APOBEC3G peptide, primary screen, biochemical, TR-FRET, GST-Vif 1-94, biotin-A3G peptide, dose response retest (AID 1117319). Virion infectivity factor (Human immunodeficiency virus type 1 group M subtype B (isolate …. actives 0.57% (n = 260,000). inhibition, %, or IC50 in µM where a hit was titrated. TR-FRET GST-Vif / biotin-A3G peptide binding; higher % means a stronger effect; test concentration not given here; strong numbers were not always called active;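 active = above the screen mean plus three standard deviations and confirmed in dose response; inconclusive = results disagree or hit not tested in dose response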;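 also: Vif residues 1-94 fused to GST binding biotinylated APOBEC3G peptide 110-148; 0% = full assay without inhibitor and 100% = GST in place of GST-Vif; retest series ran down from 100 µM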
MLL AF4-AF9 inh = inhibitors of AF4 peptide binding to AF9, primary screen, biochemical, AlphaScreen, biotin-AF4 peptide, FLAG-AF9, single point; inhibition, % at 10 µM; actives 0.47% (n = 350,000); AID 651704, 2012;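 active = every replicate reaching a set inhibition limit, whatever the replicate mean, cut at about 25% in these data; inconclusive = mean inhibition reaches that limit but some replicates miss it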;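 also: 0% = plate neutral control median and 100% = total signal loss; the record names both 10 and 1 µM as test concentration; the first replicate is given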
Target sequence (P42568 whole entry, looked up): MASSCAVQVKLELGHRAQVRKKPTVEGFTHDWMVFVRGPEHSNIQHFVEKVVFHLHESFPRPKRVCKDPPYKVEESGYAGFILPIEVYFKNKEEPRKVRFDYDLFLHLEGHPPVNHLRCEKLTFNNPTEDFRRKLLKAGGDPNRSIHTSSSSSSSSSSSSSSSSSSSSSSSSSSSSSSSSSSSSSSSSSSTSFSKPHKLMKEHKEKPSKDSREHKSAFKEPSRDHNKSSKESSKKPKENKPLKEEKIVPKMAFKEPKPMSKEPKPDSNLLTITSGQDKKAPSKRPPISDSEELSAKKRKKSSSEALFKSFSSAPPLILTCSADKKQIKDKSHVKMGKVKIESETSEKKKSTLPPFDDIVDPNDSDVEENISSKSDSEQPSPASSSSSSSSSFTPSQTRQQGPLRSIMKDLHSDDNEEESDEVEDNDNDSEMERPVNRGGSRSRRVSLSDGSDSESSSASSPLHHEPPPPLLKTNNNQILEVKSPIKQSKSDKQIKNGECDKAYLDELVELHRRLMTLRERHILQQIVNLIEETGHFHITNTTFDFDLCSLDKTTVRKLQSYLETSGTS
Starred values were filed as active, the others as inactive; i = inactive; u = inconclusive; x = no result given; + = active, no number; & = joins results of further samples.

No.	Molecule	RanGTP-Impb inh	UCH37 inh	Ecoli growth	HNF4A DNA FP	FGF22 binding	Vif TR-FRET	MLL AF4-AF9 inh
1	CCN(CC(=O)Nc1ccccc1C(F)(F)F)C(=O)c1ccc(N2C(=O)CCC2=O)cc1	6.1	-0.3	0.724	0.0	i	x	0.4
2	O=C(Nc1ccccc1F)c1ccc(OCc2ccccc2)cc1	-0.3	2.3	0.665	1.6	i	-0.6%	1.0
3	CCn1ncc(Br)c1C(=O)Nc1ccccc1C(=O)OC	-5.4	3.4	0.724	-1.4	x	-15.0%	x
4	O=S1(=O)N[C@@H](Cc2ccccc2)COc2cccc(N3CCC[C@H]3CO)c21	x	x	x	1.1	i	x	0.7
5	CC(C)CC(=O)N1CCC(N(CCc2ccccc2)Cc2ccccc2)CC1	3.0	0.5	0.657	-2.2	i	x	1.9
6	CCCN(C(=O)c1ccc(-n2cncn2)c([N+](=O)[O-])c1)C1CCS(=O)(=O)C1 (stereo unspecified)	x	3.1	0.658	4.0	i	6.3%	1.8
7	CCN(CC(=O)Nc1ccc2c(c1)OCCO2)c1ccc(S(=O)(=O)N2CCOCC2)cn1	-1.0	2.3	0.681	5.6	x	2.3%	x
8	COc1cc(-c2nnc(SCC(=O)N3CCOCC3)o2)cc(OC)c1OC	-1.3	0.3	0.647	4.5	i	1.0%	1.9
9	Cc1cc(C(=O)NN=Cc2c(C)[nH]c3ccccc23)c(C)o1	x	7.7	0.707	3.6	i	x	0.5
10	CC(=O)Nc1ccc(Nc2c3ccccc3nc3ccccc23)cc1	52.8*	3.0	x	-0.2	i	x	-2.5
11	C=CCNC(=O)C1CC2Cn3c(nc4cc(Cl)c(Cl)cc43)C2N1C (stereo unspecified)	10.1	-0.1	0.651	2.0	i	x	0.5
12	COc1ccc(NC(=O)/C(C#N)=C/c2ccc(-c3ccc(Cl)c(C(=O)O)c3)o2)cc1	0.6	16.0	0.642	-1.6	i	x	-0.4
13	CCC(NC(=O)Cc1c(C)c2cc3c(cc2oc1=O)OC(C)(C)CC3)C(=O)O (stereo unspecified)	0.5	i	0.677	-0.6	i	-8.1%	-0.4
14	CCCN(CCC)c1nc2ccccc2n2c(C)nnc12	0.0	0.1	0.701	0.6	x	-2.5%	x
15	CC(=O)n1cc([C@H]2C=C(C(=O)N3CCN(Cc4ccccc4)CC3)O[C@@H](OCc3ccc(CO)cc3)C2)c2ccccc21	2.9	1.7	x	3.0	i	-0.8%	0.4&3.0
16	Cc1cc(C)nc(SCC(=O)N2CCC(C(N)=O)CC2)n1	u	5.2	0.71	-2.4	i	3.5%	-0.1
17	O=C(NCCCn1ccnc1)c1ccc(NS(=O)(=O)c2cccc([N+](=O)[O-])c2)cc1	u	1.0	0.675	-1.1	i	1.4%	-17.4
18	Cc1nc([N+](=O)[O-])c(Br)n1Cc1ccccc1	5.3	6.6	0.666	-1.5	x	x	-3.6
19	COc1cc(OC)cc(C(=O)NNC(=O)CNC(=O)c2cccs2)c1	x	1.4	0.659	2.2	i	6.9%	-8.0
20	Cc1cc(C)c(NC(=O)CN2C(=O)NC3(CCCCC3)C2=O)c(C)c1	2.1	-1.4	0.74	1.4	i	1.3%	3.1
21	O=S(=O)(c1ccccc1)c1cnn(-c2ccccc2)c1-c1ccc(F)cc1	4.1	-0.8	0.74	-4.2	x	-3.7%	x
22	C=CCn1c(SC(C)C(=O)NC2CC2)nnc1-c1ccoc1C (stereo unspecified)	-1.1	1.3	0.709	3.5	i	5.1%	0.3
23	COc1ccc(-c2nc3c(C)cc(Br)cn3c2CC2CCCCC2)cc1OC	x	x	x	-0.1	i	x	5.9
24	COc1ccccc1C(=O)NNC(=O)C(=O)Nc1ccc(C)cc1	-1.6	3.8	0.665	-0.2	i	x	0.2
25	CCCC1NC(=S)NC(C)=C1C(C)=O (stereo unspecified)	-0.1	6.1	0.703	4.1	i	-12.7%	-0.3
26	CCOc1ccccc1NC(=O)CSc1c(C)n[nH]c1C	0.5	36.4*	0.686	0.0	x	5.7%	x
27	CCc1nc2c(OCc3ccc(Cl)cc3)cccn2c1N(C)C(=O)C1CC1	x	x	x	-1.9	i	x	-0.7
28	COc1cc(-c2nnc3sc(-c4ccco4)nn23)cc(OC)c1OC	-3.4	4.8	0.652	0.6	x	-2.3%	x
29	CCOC(=O)C1(C)C=C(Nc2ccc(NC(C)=O)cc2)C(=O)N1c1ccc(NC(C)=O)cc1 (stereo unspecified)	-5.2	-13.6	0.731	1.7	i	x	-0.2
30	CCOc1ccc(Nc2nc3ccccc3c(=O)s2)cc1	2.2	3.3	0.738	-0.9	i	-17.0%	-4.4
31	N/C(CS(=O)(=O)c1ccccc1)=N\OC(=O)c1ccc(F)cc1	-2.6	4.6	0.728	2.0	i	-7.3%	-2.0
32	Cc1ccc(-n2c(O)c(C=NC3CCS(=O)(=O)C3)c3ccccc3c2=O)cc1C (stereo unspecified)	3.2	9.0	0.71	2.7	+	7.5%	-9.0
33	COC(=O)c1c(NC(=O)CN2CCCC(C)C2)c2c(C)cccc2n1C (stereo unspecified)	4.2	-0.1	0.71	0.8	x	20.2%	x
34	Cc1cc(NC(=O)CSc2nccn2C)n(-c2ccccc2)n1	6.5	5.3	0.685	-2.0	i	1.1%	-2.3
35	COc1cc(C(=O)Nc2ccc(NC(=O)C3CC3)nc2)cc(OC)c1OC	1.4	1.7	0.714	-0.5	x	3.2%	x
36	Cc1ccc(NC(=O)CN(c2ccccc2F)S(C)(=O)=O)cc1	-0.3	-0.3	0.725	-1.0	x	0.0%	x
37	COc1cc(Cl)ccc1OCc1cc(C(=O)NCC(C)(C)N2CCOCC2)no1	0.0	-0.1	0.68	-2.8	i	x	-2.5
38	CN1CCc2c(sc(NC(=O)c3cc(Cl)sc3Cl)c2C(N)=O)C1	147.1*	7.3	0.783	5.2	i	x	5.5
39	Cc1cccc(-n2c(SCC(=O)NCc3ccco3)nnc2-c2ccco2)c1	3.3	2.6	0.665	0.5	x	10.3%&4.0%	x
40	N#Cc1c(NC(=O)c2ccc(-c3ccccc3[N+](=O)[O-])o2)sc2c1CCCC2	-4.3	4.8	0.761	-0.8	x	5.8%	x
41	CNC(=O)c1[nH]cnc1C(=O)Nc1ccc(F)cc1	-0.5	-31.4	0.652	-1.3	i	-0.5%	-7.1
42	CSc1nc2cc(Cl)ccc2s1	2.5	0.4	0.719	-0.9	x	1.3%	x
43	CC(C)CNc1cc(Cl)c(S(=O)(=O)NCC(C)C)cc1C(=O)O	-2.1	4.9	0.783	0.2	x	-5.0%	x
44	COc1ccc(CNC(=O)C2(C)Cc3c(-c4ccc(C(N)=O)cc4)ccnc3O2)cc1OC (stereo unspecified)	x	x	x	-1.4	i	x	1.7
45	O=C(NCc1ccccc1)C(Cc1ccccc1)N1C(=O)C2C3CCC(C3)C2C1=O (stereo unspecified)	1.6	2.3	0.746	0.5	x	11.6%	x
46	CN(C)c1ccc(-c2csc(C(O)c3ccc(F)c(F)c3)n2)cc1 (stereo unspecified)	x	x	x	-2.6	i	x	-0.3
47	c1ccc(Oc2ccc(-c3ccnc4nc(N5CCN(c6ccccc6)CC5)nn34)cc2)cc1	-1.1	-27.4	0.77	-2.4	x	-12.3%	x
48	CCCOC(=O)c1c(NC(=O)/C=C/c2cnn(C)c2C)sc(C(=O)OC)c1C	-0.9	-129.9	0.705	1.6	i	-3.8%	1.1
49	CCN(CC(=O)NCc1ccc(F)cc1)C(=O)COc1ccc2ccccc2c1	-0.8	-1.2	0.68	5.5	x	x	x
50	Cc1ccc(C(=O)Nc2ccccc2C(=O)NC(Cc2ccccc2)C(=O)O)cc1 (stereo unspecified)	-0.6	5.6	0.646	0.2	i	-22.6%	-1.7
51	O=C(NC(=S)Nc1ccc(S(=O)(=O)Nc2ncccn2)cc1)c1ccc(Br)cc1	-3.5	1.1	0.671	0.7	i	8.3%	-3.3
52	Cc1nn(C)c(C)c1C1C(C#N)=C(N)Oc2n[nH]c(C)c21 (stereo unspecified)	0.7	5.3	0.707	0.9	x	x	x
53	O=C(NC1CCCCCCC1)c1cccs1	4.3	6.2	0.651	1.0	i	x	-0.8
54	COc1ccc(S(=O)(=O)N2CCC3(CC2)CC(=O)c2ccccc2O3)cc1OC	3.8	1.7	0.675	0.2	i	5.1%	-0.7
55	O=C(CCl)NN=C(c1ccccc1)c1ccccc1	-3.5	2.8	0.716	1.6	i	-7.7%	11.1
56	Cc1cccc2cc(COC(=O)COc3ccccc3)c(=O)[nH]c12	1.7	-0.4	0.766	-2.5	x	-12.5%	x
57	O=C(O)c1c2c(nc3ccccc13)-c1ccccc1CC2	4.8	-16.3	0.701	-3.2	x	-5.3%	-1.8
58	CC(=O)NCCNC(=O)CCNC(=O)c1ccc(Cl)cc1	5.4	5.9	0.716	1.4	x	8.4%	x
59	Cc1nnc(SCc2cc(=O)[nH]c(/N=C(\N)Nc3ccccc3Sc3ccccc3)n2)s1	-0.1	x	x	0.4	i	1.4%	3.1
60	O=C(Nc1cccc(S(=O)(=O)N2CCCC2)c1)c1ccc2c(c1)OCO2	5.7	-1.2	0.693	-2.3	i	13.8%	-3.1

Going on with the list:
No.	Molecule	RanGTP-Impb inh	UCH37 inh	Ecoli growth	HNF4A DNA FP	FGF22 binding	Vif TR-FRET	MLL AF4-AF9 inh
61	CNC(=S)Nc1cc(S(=O)(=O)Nc2cc(Cl)ccc2Cl)ccc1N1CCCC1	-3.0	0.8	0.682	0.5	i	-0.1%	-0.4
62	CNC(=S)NNC(=O)c1sc2cc(C(F)(F)F)cnc2c1-c1cccnc1	4.9	-1.4	0.681	1.0	i	15.2%	-0.2
63	CCCCN(C(=O)c1ccc(-n2nc(C)cc2C)cc1)c1c(N)n(CCC)c(=O)[nH]c1=O	x	0.6	0.669	1.0	i	2.9%	-7.3
64	CCCCOC(=O)Nc1nnc(CCc2ccccc2)s1	-2.7	-6.5	0.683	-2.9	x	-0.4%	x
65	O=C(O)C[C@H]1c2cc(C(F)(F)F)ccc2S(=O)(=O)N1C1CCCC1	2.0	-0.6	x	-1.6	i	x	-13.4
66	S=C(NC1CC1)N1CCN(C(=S)NC2CC2)CC1	2.5	2.0	0.727	1.1	i	x	-0.9
67	CN(C)C(=O)c1cc(C(=O)c2ccc(Cl)cc2Cl)c[nH]1	0.2	6.1	0.679	-0.9	i	x	-3.1
68	COc1ccc(CN2C(=O)C(CC(=O)NCc3cccs3)CC(C(=O)N(C)C)=C2C)cc1 (stereo unspecified)	x	x	x	1.1	i	3.3%	0.7
69	CCCCNC(=O)N1CCN(c2ccnc3cc(Cl)ccc23)CC1	5.1	5.7	0.685	0.8	x	-0.5%	x
70	CN1CCN(c2nc3c(c(=O)n(C)c(=O)n3C)n2Cc2ccccc2F)CC1	0.7	0.7	0.625	3.6	i	-3.1%	1.0
71	COc1ccc(NS(=O)(=O)c2cc(NC(=O)c3cncc(Br)c3)ccc2OC)cc1	x	0.7	0.69	-1.8	i	x	2.8
72	CC1(C)CC(=O)C(N=Nc2ccc3ncsc3c2)=C(O)C1	-8.3	9.7	0.74	-0.1	x	u	x
73	O=C(Nc1ncnc2sc3c(c12)CCC3)c1ccco1	-5.0	0.3	0.697	3.1	i	3.0%	-0.6

Some of the compounds tested (hit frequency here may not be typical).
